Screens as filed in PubChem BioAssay.
VDR inhibitor = inhibitors of human vitamin D receptor. VDR-SRC2-3 peptide fluorescence polarization, 2 h. AID 504847. 400,000 tested, 0.93% active. P11473. Potency, µM, without a hit: max response, negative = inhibition, hits mostly inhibitors; active = well fitted inhibition curve with a large enough effect; inconclusive = small, poorly fitted or top-dose-only effect, or another doubt; inactive = no such curve, though single readings can be large or run the other way; note: series mostly up to about 120 µM
Target sequence (P11473 whole entry, looked up): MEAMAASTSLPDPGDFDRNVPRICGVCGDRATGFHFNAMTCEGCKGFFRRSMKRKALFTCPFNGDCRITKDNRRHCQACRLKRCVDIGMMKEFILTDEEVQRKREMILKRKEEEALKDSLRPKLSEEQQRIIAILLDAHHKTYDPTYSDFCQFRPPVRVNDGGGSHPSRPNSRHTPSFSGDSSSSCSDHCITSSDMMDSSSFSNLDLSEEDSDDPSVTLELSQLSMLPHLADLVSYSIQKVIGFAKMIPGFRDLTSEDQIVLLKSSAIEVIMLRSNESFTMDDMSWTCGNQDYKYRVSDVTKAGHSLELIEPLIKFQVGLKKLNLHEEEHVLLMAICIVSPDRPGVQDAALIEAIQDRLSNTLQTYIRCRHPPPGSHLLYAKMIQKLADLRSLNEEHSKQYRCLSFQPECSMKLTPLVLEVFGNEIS
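Measured by FP: displacement of SRC2-3 coactivator peptide from VDR by library compounds, following a two-hour ambient incubation.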
The depositor's hits bear a star; ? = inconclusive; & = joins results of further samples. % is set by controls: 0 for no effect and ±100 for the full control effect; potency is the fitted concentration of half-maximal effect.

Sample of the layout, 2 compounds:
SMILES	VDR inhibitor
CC1=NC(C)(C)CC2CCC(O)C12 (stereo not drawn)	-17.7%
O=C1Nc2ccccc2C1=Nc1ccc(-c2nnc3n2CCCCC3)cc1	?

All compounds of this part, from the first entry:
SMILES	VDR inhibitor
CC1=NC(C)(C)CC2CCC(O)C12 (stereo not drawn)	-17.7%
O=C1Nc2ccccc2C1=Nc1ccc(-c2nnc3n2CCCCC3)cc1	?
Cc1cccc(NC(=O)c2ccc(OCc3c(C)noc3C)cc2)c1C	2.3%
CC(C)(C)C(=O)N1CCN(c2ccc(NC(=O)c3ccco3)cc2)CC1	20.5%
CCc1ccc(NC(=O)COC(=O)C2(c3ccc(Cl)cc3)CCCC2)cc1	13.2%
Cc1cccc(C)c1N/C=C/c1onc(C)c1[N+](=O)[O-]	4.6%
O=C(Nc1ccc(NC(=O)c2ccccn2)cc1)C(=O)Nc1ccc2c(c1)OCCO2	13.2%
Cc1cccc(N2C(=O)CC(N3CCN(c4ccc(Cl)cc4)CC3)C2=O)c1 (stereo not drawn)	17.4%
O=C(Nc1ccc2c(c1)OCCO2)c1cccc(C(=O)Nc2ccc3c(c2)OCCO3)c1	-24.8%
N#C/C(=C(/O)CN1CCN(c2ccccc2F)CC1)c1nc(-c2ccccc2)cs1	8.1%
CC(C)c1ccc2[nH]c3c(c2c1)CCCC3=O	-0.8%
COc1cc(OC)cc(C(=O)N/N=C(\C)CC(=O)Nc2ccccn2)c1	17.3%
CC(=O)C1=C(O)C(=O)N(c2ccc(C(=O)O)cc2)C1c1ccccc1 (stereo not drawn)	-11.2%
CCC(C)NC(=O)CCNS(=O)(=O)c1ccc(Br)cc1 (stereo not drawn)	11.2%
Cn1nnc(NC(=S)NC(=O)c2ccco2)n1	2.5%
C/C=C/c1ccccc1OCc1ccc(C(=O)O)o1	-2.9%
O=C(CNc1cccc(C(F)(F)F)c1)Nc1cccc(S(=O)(=O)N2CCCC2)c1	-16.8%
c1ccc(C2OC3c4cccc5cccc(c45)C3N2c2ccccc2)cc1 (stereo not drawn)	-1.4%
CCOc1cc(C)nc(N2CCC(C(=O)NC3CC3)CC2)n1	-2.2%
c1ccc(Cc2nnc3sc(Nc4ccccc4)nn23)cc1	0.6%
CN(C)S(=O)(=O)c1ccc(C(=O)Nc2ccccc2[N+](=O)[O-])cc1	-4.3%
Cc1ccccc1N1CCN(C2CCCN(C(=O)c3cc(C(C)C)[nH]n3)C2)CC1 (stereo not drawn)	7.0%
CC(=O)c1ccc(NC(=O)C2CCC(C)NC2=O)cc1 (stereo not drawn)	15.1%
Cc1ccnc(NC(=O)c2sc3ccccc3c2Cl)c1	-13.7%
NC(=O)C1CCCN(Cc2ccc(Cl)cc2)C1 (stereo not drawn)	4.8%

The list goes on; it opens with the seven that closed the last part.
SMILES	VDR inhibitor
CCOc1cc(C)nc(N2CCC(C(=O)NC3CC3)CC2)n1	-2.2%
c1ccc(Cc2nnc3sc(Nc4ccccc4)nn23)cc1	0.6%
CN(C)S(=O)(=O)c1ccc(C(=O)Nc2ccccc2[N+](=O)[O-])cc1	-4.3%
Cc1ccccc1N1CCN(C2CCCN(C(=O)c3cc(C(C)C)[nH]n3)C2)CC1 (stereo not drawn)	7.0%
CC(=O)c1ccc(NC(=O)C2CCC(C)NC2=O)cc1 (stereo not drawn)	15.1%
Cc1ccnc(NC(=O)c2sc3ccccc3c2Cl)c1	-13.7%
NC(=O)C1CCCN(Cc2ccc(Cl)cc2)C1 (stereo not drawn)	4.8%
CCCCn1c(N)c(N(CCOC)C(=O)CSc2n[nH]c(-c3ccc(C)cc3)n2)c(=O)[nH]c1=O	8.2%
Cc1ccc2nc(-c3ccc4c(c3)OCCO4)cn2c1	-1.3%
Cc1ccc(S(=O)(=O)NCC(=O)NCC2CCCCC2)cc1C	3.1%
COc1cccc(NC(=O)COC(=O)c2ccc(C)c(S(=O)(=O)N3CCCCC3)c2)c1	-7.1%
CN1CCC(N(C)S(=O)(=O)c2ccc(NC(=O)COc3cccc(Cl)c3)cc2)CC1	-10.1%
CC12CC3CC(C)(C1)CC(C(=O)N1CCN(C(=O)c4ccco4)CC1)(C3)C2	22.3%
COc1ccc(-c2csc(NC(=S)NC(=O)/C=C/c3ccco3)n2)cc1OC	-7.5%
O=C1c2cccc3c2[C@@H](CCC3)CN1[C@@H]1CN2CCC1CC2	1.5%
COCCNC(=O)Nc1ccc2nc(-c3cccs3)c(-c3cccs3)nc2c1	9.3%
Cc1cc2cc(CN(Cc3ccco3)C(=O)NCc3ccccc3)c(=O)[nH]c2cc1C	23.6%
CC1=C([N+](=O)[O-])C(c2ccccc2Cl)NC(=O)N1C (stereo not drawn)	10.6%
O=c1[nH]c(C2CCN(S(=O)(=O)c3ccc(C(F)(F)F)cc3)CC2)nc2c1nnn2Cc1cccc(F)c1	0.4%
CCS(=O)(=O)NCCc1cc2cc(C)c(C)cc2[nH]c1=O	-3.4%
O=C(NC1=NCCCCC1)c1cccc2ccccc12	-9.8%
Cc1ccc(-c2nn3c(C)nnc3c3ccccc23)cc1S(=O)(=O)NCCO	13.6%&-9.0%
COc1ccsc1C(=O)NCCN1CCOCC1	2.0%
CCCCN(CC)S(=O)(=O)c1ccc2c(c1)CCCN2C(C)=O	-17.7%
C#CCOCCOCCOCCNc1nc(N2CCOCC2)nc(N2CCN(C(=O)CCCCCCCCCCNC(=O)[C@H](CO)n3cc(CCCCCN)nn3)CC2)n1	-19.1%
CC(C)[C@H](Nc1ccc(S(=O)(=O)N2CCOCC2)cc1[N+](=O)[O-])C(=O)OCC(N)=O	-10.3%
CCOC(=O)c1c(C)[nH]c(C)c1C(=O)COC(=O)c1ccc(S(=O)(=O)C(F)F)cc1	-11.1%
O=C(Cn1cnc2ccccc2c1=O)NCC(=O)N1CCN(c2ccccn2)CC1	-7.0%
OCC[C@H]1C[C@@H](O)[C@H](O)[C@]2(Cc3ccccc3CO2)O1	-16.8%
O=C(CN(C(=O)C1CSC(=O)C1)c1ccccc1F)NCc1ccc2c(c1)OCO2 (stereo not drawn)	-3.8%
O=c1oc2ccccc2c2oc3cc(O)c(O)cc3c12	26.2%
CC(C)C[C@@H]1NC(=O)[C@H](CO)NC(=O)c2cc([N+](=O)[O-])cc(I)c2OCC[C@@H](C(N)=O)NC1=O	-20.5%

Continued:
SMILES	VDR inhibitor
Cc1ccc(S(=O)(=O)Nc2ccc3ccccc3c2[N+](=O)[O-])cc1	-15.8%
CCOc1ccccc1N1CCN(C(=O)NC2CCCCC2)CC1	0.8%
O=C(CCCC1=NS(=O)(=O)c2ccccc2N1)N1CCN(c2ccccc2)CC1	10.6%
CCCC(O)(c1ccc(OC)cc1)C(CN1CCOCC1)c1ccc(Cl)cc1 (stereo not drawn)	-17.8%
Cc1ccc(/C(N)=N/OC(=O)Cc2cccs2)cc1	3.4%
COc1ccc(/C=C/c2ccccc2)cc1[C@H]1[C@@H]2C=CCC[C@@]2(C)C(=O)N1Cc1ccccc1	-8.3%
COc1ccc(CNC(=O)C2CCN(Cc3nc(-c4ccc(OC)c(OC)c4)oc3C)CC2)cc1	-5.6%
O=C(COc1ccc(S(=O)(=O)NC2CCCCC2)cc1Cl)N1CCN(c2ccccc2)CC1	2.4%
O=C(NNC(=S)Nc1ccccc1)c1cccc(S(=O)(=O)N2CCOCC2)c1	-22.9%
CCOC(=O)c1ccc(NC(=O)CC2C(=O)N(c3cccc(OC)c3)C(=O)N2C2CCCCC2)cc1 (stereo not drawn)	-20.0%
COc1ccc(-c2nc(CS(=O)CC(=O)NC3CCCC(C)C3C)c(C)o2)cc1OC (stereo not drawn)	12.3%
O=C(Cc1ccc(Br)cc1)N1CCc2ccccc2C1	-14.3%
O=C(Cn1c(=O)c2cccn2c2cccnc21)N1CCN(c2ccc(Cl)cc2)CC1	-13.1%
O=[N+]([O-])c1ccc(N2N=C(c3ccco3)CC2c2ccccc2)cc1 (stereo not drawn)	-21.0%
CCOC(=O)C(CC)Sc1c(CC)cnc2c1c(=O)n(C)c(=O)n2C (stereo not drawn)	6.1%
NC(=O)c1ccccc1NC(=O)COC(=O)C1(c2ccccc2)CC1	-2.2%
Cc1ccc2c(c1)nnn2C1CCN(C(=O)Nc2ccccc2C)CC1	9.4%
COCc1c(C(=O)OCc2nc3ccsc3c(=O)[nH]2)oc2ccccc12	2.9%
O=C(Nc1ccc(OC(F)(F)F)cc1)c1cc2c(=O)n3ccccc3nc2s1	14.9%
COc1cc(NC(=O)Nc2nnc(N3CCCCC3)s2)cc(OC)c1	-3.4%
COCCOC(=O)c1c(C)oc2ccc(O)c(CN3CCC(C)CC3)c12 (tested in a mixture with another compound)	1.9%
Cc1ccc(NS(=O)(=O)c2ccc(NC(=O)N3CCCCC3)cc2)cc1	-3.1%
CC(Oc1ccc2c(-c3ccccc3)cc(=O)oc2c1)C(=O)NCCCn1ccnc1 (stereo not drawn)	-5.2%
CSC1=NCCN1C(=O)c1cccs1	-15.7%
O=C(NCc1cccc2ccccc12)Nc1ccccc1	-2.7%

More structures follow:
SMILES	VDR inhibitor
Cc1ccc(Nc2nc(N3CCOCC3)c3ccccc3n2)cc1	8.5%
COCCC(=O)N1CCC(Oc2ccc(C(=O)NCc3cc(C)n(C)n3)cc2)CC1	-23.5%
CC(=O)C1=C(O)C(=O)N(Cc2cccnc2)C1c1ccc(Cl)cc1Cl (stereo not drawn)	-3.9%
COc1ccc(-c2noc(CCC(=O)N3CCN(c4ccc(Cl)cc4)CC3)n2)cc1	3.0%
CCOc1ccc(OCC)c(NC(=O)CCn2cccc2)c1	9.7%
COCCN1C(=O)C(=O)/C(=C(/O)c2cccc(OC)c2)C1c1ccncc1 (stereo not drawn)	-4.0%
COc1ccc(CNC(=O)CN2C(=O)CCn3nc(-c4ccccc4)cc32)c(OC)c1	1.7%
Cc1ccc(CNC(=O)c2ccc(N3CCC4(CC3)CC(c3cccc(Br)c3)=NO4)c(NC(=O)c3ccccc3)c2)cc1	-12.7%
N#CC(C#N)=c1ccc2c(c1)N1C(c3ccccc3)=CC(c3ccccc3)C3CCCCC31N=2 (stereo not drawn)	?
CCn1c(SCC(=O)Nc2cc(C)on2)nnc1-c1cccs1	-7.7%
CCc1ccc(C(=O)Nc2ccc3nn(-c4ccc(C)c(Cl)c4)nc3c2)cc1	-5.2%
O=C(CN1C(=O)COc2ccc(S(=O)(=O)Nc3ccccc3)cc21)NCc1ccccc1Cl	6.5%
CC1CCN(C(=S)c2ccc(O)cc2)CC1	-11.2%
CCOC(=O)C(=Cc1ccccc1)C(=O)OCC	10µM*
O=S(=O)(Nc1nc2ccc(S(=O)(=O)N3CCCCC3)cc2s1)c1ccccc1	-3.9%
COc1ccc2ccccc2c1/C=N/Nc1ccc(Cl)c(C(=O)O)c1	4.4%
Cc1nnc(C)n1/N=C/c1c(O)ccc2ccccc12	-5.3%
COc1cccc(/C=C/C(=O)OCC(=O)Nc2nnc(-c3ccccc3)o2)c1	-8.2%
O=C(CCS(=O)(=O)c1cccc2nonc12)N1CCOCC1	5.5%
COc1ccc(Cn2c(=O)[nH]c3cc(C(=O)N4CCN(Cc5ccccc5)CC4)ccc3c2=O)cc1	10.5%
COc1ccccc1-n1c(SCC(=O)NCc2ccc3c(c2)OCO3)nc2cc([N+](=O)[O-])ccc21	?
O=C1NC(=S)SC1=Cc1ccc(F)cc1	-1.3%
CCOc1ccc(NC(=O)CSc2nnc(-c3ccccc3Cl)n2Cc2ccco2)cc1	-3.6%
Cc1ccc(NS(=O)(=O)c2ccc(NC(=O)c3ccc(Br)o3)cc2)c(C)c1	-11.3%
Cc1c(NC(=O)CCc2ccccc2)cccc1[N+](=O)[O-]	15.3%

Ordered by the number under VDR inhibitor (rising): some entries from above.
structure | VDR inhibitor
COCCN1C(=O)C(=O)/C(=C(/O)c2cccc(OC)c2)C1c1ccncc1 (stereo not drawn) | -4.0%
O=C1NC(=S)SC1=Cc1ccc(F)cc1 | -1.3%
O=C(CCS(=O)(=O)c1cccc2nonc12)N1CCOCC1 | 5.5%

The results go on.
SMILES	VDR inhibitor
CCCCn1c(=O)c2oc3ccccc3c2n(Cc2ccc(C)cc2)c1=O	8.8%
CCOc1ccccc1/C=C\c1nc(O)c([N+](=O)[O-])c(=O)[nH]1	?
CC(NC(=S)Nc1ccc(Cl)cc1Cl)C(c1cccs1)N1CCCC1 (stereo not drawn)	-12.0%
Cc1nn(C)c(Sc2ccccn2)c1[N+](=O)[O-]	-4.2%
FC(F)(F)Oc1ccccc1-c1nnc(-c2cccc(C(F)(F)F)c2)o1	-5.8%
Cc1ccc(NC(=O)c2ccccc2CCc2ccccc2)c(C)c1	-2.1%
CC(C)c1ccc(NC(=O)CCCN2C(=S)NC(C)(C)CC2C)cc1 (stereo not drawn)	4.6%
N#Cc1cccc(NC(=O)CN2CCN(Cc3ccccc3)CC2)c1	20.0%
COc1ccc(N(CC(=O)NC2CCCCC2)C(=O)CCC(=O)Nc2nc(C)cs2)cc1	2.1%
COc1ccc(/C=C2\CCC(C3CCCC3)C2=O)cc1OC (stereo not drawn)	-8.3%
O=C(Cn1ccn(-c2ccc(F)c(Cl)c2)c(=O)c1=O)NCCc1ccccc1	-9.2%
Cc1ccc(/C=C(/C#N)C(=O)NC(=O)Oc2ccccc2)cc1	-2.3%
Nc1nc(SCC(=O)Nc2ccc(F)cc2)[nH]c(=O)c1NC(=O)c1ccc(F)c(F)c1	2.8%
CC1CC(C)CN(c2ccc(C(=O)NCc3ccc4c(c3)OCO4)cc2[N+](=O)[O-])C1 (stereo not drawn)	14.4%
O=C(CSc1nc2ccccc2s1)NNC(=S)Nc1ccccc1	-1.6%
CCOC(=O)C1=CN2CCCC[C@@H]2CC1=O	-3.4%
Cc1ccc(OC(=O)CSc2nnc(-c3ccc4c(c3)OCO4)o2)cc1	18.2%
COc1ccc(NC(=O)CN2c3cccc4cccc(c34)S2(=O)=O)c(OC)c1	10.3%
O=C(O)c1ccccc1OC(C(=O)Nc1cc(Cl)cc(Cl)c1)c1ccccc1 (stereo not drawn)	0.6%
Nc1ncc(CCN2CCOCC2)c(-c2ccc(F)cc2)n1	-21.6%
CC1CCCCN1c1ccc(N)cc1C(N)=O (stereo not drawn)	-2.0%
O=C(NCc1ccc(F)cc1)c1cc(S(=O)(=O)N2CCCCC2)ccc1N1CCOCC1	2.1%
O=S(=O)(c1cccc(C(F)(F)F)c1)N1CCN(S(=O)(=O)c2ccc3c(c2)OCCO3)CC1	13.5%

Only part of the results is shown; rates above refer to the full screens.
